Cruzain inh noDet = blocks cruzain activity in detergent-free assay. P25779. purified cruzain, Z-FR-AMC fluorescence, no detergent. Potency, µM, for the others: max response, negative = inhibition, hits mostly inhibitors. 200,000 tested, 2.3% active. AID 1476;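 further: plate controls were enzyme without inhibitor for no effect and buffer without enzyme for full effect; nearly all actives have a fitted effect of over 40% in size; top concentration of the series not given in the record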
Target sequence (P25779 123-467 limits assumed): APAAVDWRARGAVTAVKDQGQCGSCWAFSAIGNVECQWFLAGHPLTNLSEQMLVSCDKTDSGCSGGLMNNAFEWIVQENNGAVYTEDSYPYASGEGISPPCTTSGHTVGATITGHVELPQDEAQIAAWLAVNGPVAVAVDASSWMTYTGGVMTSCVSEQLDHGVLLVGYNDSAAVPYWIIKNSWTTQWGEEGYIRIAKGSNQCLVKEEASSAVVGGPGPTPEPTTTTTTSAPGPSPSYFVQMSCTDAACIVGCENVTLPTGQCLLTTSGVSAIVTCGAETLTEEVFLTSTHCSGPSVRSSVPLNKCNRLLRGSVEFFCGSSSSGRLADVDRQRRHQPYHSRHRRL
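Purified cruzain at 1.5 nM, pre-incubated 15 min with compound at room temperature in 100 mM sodium acetate pH 5.5, 5 mM DTT, 0.00005% Triton X-100. Reaction started with 2 uM Z-FR-AMC; AMC fluorescence increase over 60 s gives rate.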
RE007 growth inh = less growth of the S. pombe RE007 Vpr strain. Potency, µM (top dose mostly 92.2 µM), for inactives: at the highest dose activity change, negative = less growth. 360,000 tested, 0.21% active. AID 651644. S. pombe RE007 Vpr strain, BacTiter-Glo ATP luminescence, 24 h; control for the full effect not named in the record; active = well fitted falling curve with a large enough effect; inconclusive = small, poorly fitted or top-dose-only effect; inactive = no such curve, though single readings can be large or run the other way;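 further: on the % scale 0 is the no-effect control and ±100 the full control effect; nearly all actives have a fitted effect of over 50% in size; the assay follows cell death caused by Vpr and the record does not say whether a fall means rescue or toxicity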
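Fission yeast strain RE007, carrying one chromosomally integrated HIV-1 vpr copy, was seeded at OD 0.01 in PMG+AL medium with 23 nL pinned compound. After 24 h at 30 °C and 99% humidity, viability was read by BacTiter-Glo luminescence.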
SARS PLP yeast = SARS-CoV PLP inhibition in yeast; S. cerevisiae expressing SARS-CoV PLpro, growth rescue; control for the full effect not named in the record; Potency, µM (series often up to 32.9 µM), without a hit: top-dose activity, positive = growth rescue; 330,000 tested, 0.19% active; AID 485353; active means well fitted rising curve with a large enough effect; inconclusive means small, poorly fitted or top-dose-only effect; inactive means no such curve, though single readings can be large or run the other way; further: 0% is about no effect; nearly all actives have a fitted effect of over 55% in size; growth read by luminescence after 48 h
2A StopGo = FMDV 2A StopGo reporter, luciferase signal; human cells with a luciferase reporter of 2A StopGo recoding; control for the full effect not named in the record; Potency, µM (top dose mostly 57.9 µM), for the others: at the highest dose signal change, negative = less light; 410,000 tested, 1.2% active; AID 1159524; active = well fitted falling curve with a large enough effect; inconclusive = small, poorly fitted or top-dose-only effect; inactive = no such curve, though single readings can be large or run the other way; tested in HEK293T cells; further: on the % scale 0 is the no-effect control and ±100 the full control effect; nearly all actives have a fitted effect of over 45% in size; luciferase light after 4 h
Cruzain inh Det = inhibitors of Trypanosoma cruzi cruzain with detergent | AID 1478 | Potency, µM, inactives show max response, negative = inhibition, most hits filed as inhibitors | purified cruzain, Z-FR-AMC fluorescence, 0.01% Triton | P25779 | 200,000 tested, 0.43% active;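 further: plate controls were neutral wells for no effect and buffer without enzyme for full effect; nearly all actives have a fitted effect of over 40% in size; top concentration of the series not given in the record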
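In this qHTS format, compounds are incubated with 1.5 nM cruzain for 15 min at room temperature before 2 uM Z-FR-AMC is added. Release of AMC is followed at 360/450 nm, and progress is taken as the 60 s fluorescence difference.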
NS1 inh = influenza NS1 inhibition. S. cerevisiae slowed by influenza A NS1, growth recovery by OD600. Potency, µM (highest dose often 46.1 µM), without a hit: at the highest dose activity, positive = more growth. 270,000 tested, 0.4% active. AID 2326; active means well fitted rising curve with a large enough effect; inconclusive means small, poorly fitted or top-dose-only effect; inactive means no such curve, though single readings can be large or run the other way; further: nearly all actives have a fitted effect of over 50% in size
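Compounds were scored for reversing the slow growth caused by influenza A NS1 in S. cerevisiae, measured by optical density at 600 nm. Assay medium contained 2% galactose at pH 6.0; NS1-free yeast of the same strain were the positive control.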
LASV entry inh = Lassa virus entry inhibition | Lassa virus pseudotype entry inhibition, cell reporter; control for the full effect not named in the record | Potency, µM (top dose mostly 37.9 µM), inactives show at the top dose activity change, negative = inhibition, most hits filed as inhibitors | 300,000 tested, 1.2% active | AID 540256; active means well fitted inhibition curve with a large enough effect; inconclusive means small, poorly fitted or top-dose-only effect, or effect the other way; inactive means flat fitted curve, though single readings scatter; tested in HEK293 cells; further: on the % scale 0 is the no-effect control and ±100 the full control effect; nearly all actives have a fitted effect of over 50% in size; luciferase read-out
Marburg entry inh = inhibitors of Marburg virus binding or cell entry; Marburg virus pseudotyped entry inhibition, cell reporter; control for the full effect not named in the record; about a third of the inactives were read at about 46 µM; Potency, µM (highest dose often 37.8 µM), for inactives: at the top dose activity change, negative = inhibition, usual class: inhibitors; 300,000 tested, 1.8% active; active = well fitted inhibition curve with a large enough effect; inconclusive = small, poorly fitted or top-dose-only effect, or effect the other way; inactive = flat fitted curve, though single readings scatter; tested in HEK293 cells; about a fifth of its hits are not listed in these tables; further: on the % scale 0 is the no-effect control and ±100 the full control effect; luciferase read-out
Numbers without * were called inactive; ? = inconclusive; / = not tested or not shown; [ ] = another dose, or the depositor's remark. Unless noted, the call rests on the fitted dose curve; in most records, active means well fitted curve in the direction sought with a large enough effect; inconclusive means small, poorly fitted or top-dose-only effect, or another doubt; inactive means no such curve, though single readings can be large; an effect the other way counts as inactive or inconclusive. Potency means the concentration at half of the fitted maximal effect.

mol	Cruzain inh noDet	RE007 growth inh	SARS PLP yeast	2A StopGo	Cruzain inh Det	NS1 inh	LASV entry inh	Marburg entry inh
Cc1cccc(OCc2nnc(SCC(=O)Nc3ccc(C)c(C)c3)o2)c1	9%	-1%	4%	/	-1.2%	14%	?	-3%
C=CCn1c(O)c(CN2CCOCC2)c(C)c(C#N)c1=O	2%	3%	3%	-23%	-1.2%	-6%	-2%	17%
COc1ccc(CCNC(=O)CCCCCn2c(=O)[nH]c3cc(OC)c(OC)cc3c2=O)cc1OC	3%	/	/	-21%	0.7%	/	11%[46.1 µM]	13%[46.1 µM]
Nc1nc(-c2ccccc2)c(N=Nc2cccnc2)s1	/	14%	4%	-3%	/	/	0%	?
COc1ccc(CCNC(=S)NC(=O)c2cc(OC)c(OC)c(OC)c2)cc1OC	/	3%	1%	-27%	/	-4%	13%	-6%
CCOC(=O)c1c(-n2cnnn2)sc(C)c1C	9%	10%	11%	6%	-2.0%	-24%	13%	23%
CCOc1ccccc1NC(=O)CSc1nnc(CNC(=O)c2c(F)cccc2Cl)o1	/	-2%	-2%	1%	/	6%	2%[46.1 µM]	-14%[46.1 µM]
CCOC(=O)N1CCN(C2OC(=O)c3ccccc32)CC1 (stereo not given)	5%	28%	5%	7%	3.1%	8%	-2%	23%[46.1 µM]
COc1cccc(-c2csc(N3CCN(C(=S)NCC(C)C)CC3)n2)c1	/	-8%	30%	?	/	0%	-16%[46.1 µM]	?
O=C(CSCc1ccc(C(=O)O)cc1)Nc1ccc2ccccc2c1	/	-12%	0%	-2%	/	2%	/	/
Cn1cc(S(=O)(=O)N2CCCC2)cc1C(=O)NCc1ccccc1	/	-3%	-9%	-27%	/	23%	/	/
Cc1ccc(-c2nn(C)c(=O)c3ccccc23)cc1CN1CCCCC1	/	1%	0%	12%	/	-7%	17%[46.1 µM]	-2%[46.1 µM]
Cc1ccc2c(c1)C1CN(C)CCC1N2Sc1ccccc1[N+](=O)[O-] (stereo not given)	/	4%	-2%	?	/	11%	7.1µM*	?
CCOC(=O)N1CCC(=NNC(=O)c2ccc(O)cc2)CC1	14%	-3%	-5%	1%	0.6%	-3%	8%	?
COc1ccc(OC)c(NC(=O)C(Cc2ccccc2)NS(=O)(=O)c2ccc3c(c2)CCC(=O)N3)c1 (stereo not given)	19%	/	/	-22%	-0.6%	/	?	-5%[46.1 µM]
CCCCN(Cc1ccccc1)c1ncnc2nc[nH]c12	-3%	12%	-92%	-9%	-4.7%	-49%	3%	?
COc1ccc(S(=O)(=O)N2CCN(CCC(=O)Nc3ccc(F)cc3)CC2)cc1	18%	-3%	3%	0%	1.7%	-15%	-13%	?
COc1ccc(-c2noc(CCC(N)=O)n2)cc1OC	-3%	4%	5%	15%	1.9%	9%	19%	-2%
COc1ccccc1-c1cc(C(=O)Nc2ccc(F)cc2F)no1	13µM*	-6%	8%	19%	1.1%	-13%	39%[14.3 µM]	-17%
Cn1c(C(=O)NCc2ccco2)cc2c(=O)[nH]c3ccccc3c21	-11%	8%	4%	-2%	-11%	?	7%	-11%
Cc1ccc(S(=O)(=O)CCCS(=O)(=O)c2ccc(C)cc2)cc1	-2%	19%	7%	11%	7.3%	2%	0%	8%
Cc1ccc(-n2ncc3c(=O)n(CC(=O)NCc4ccco4)cnc32)cc1	?	3%	4%	-12%	2.7%	9%	2%	-32%
COc1ccccc1NS(=O)(=O)c1cc(NC(C)=O)ccc1N1CCCCC1	/	1%	1%	40%[activator]	/	/	/	?
CCn1c(CSCc2c(Cl)cccc2Cl)n[nH]c1=S	/	45%	5%	-24%	/	/	-9%	-12%[46.1 µM]
COc1ccc(-c2nc(NC(=O)Cn3ccc(C(F)(F)F)n3)sc2C)cc1	-4%	4%	1%	?	-2.7%	12%	?	?
CCOC(=O)c1sc(=NC(=O)c2cccc(OC)c2)n(C)c1C	29%	4%	-10%	/	2.7%	-15%	21%	10%
CCCCn1nc(NC(=O)COC)c2cc3cc(OC)ccc3nc21	/	0%	-1%	7%	/	-2%	/	/
COc1ccc(S(=O)(=O)N(CC(=O)Nc2cc(Cl)ccc2C)Cc2ccccc2)cc1OC	19%	/	/	-11%	-4.0%	/	?	/
OCCCc1cn(Cc2ccccc2)c2ccccc12	/	1%	-7%	-1%	/	4%	12%	2%
COc1cccc(C(=O)Nc2cccnc2)c1	1%	3%	6%	24%	3.6%	-9%	4%	-25%
CCN(CC)C1CCN(C(=O)c2cc(COc3cccc4cccnc34)on2)C1 (stereo not given)	/	-7%	-2%	-7%	/	5%	17%[46.1 µM]	-2%[46.1 µM]
COC(CNc1cc(=O)oc2ccccc12)OC	3%	1%	6%	-1%	4.4%	9%	7%	3%[46.1 µM]
CC(=O)Nc1ccccc1C(=O)N1CCN(Cc2ccccc2)CC1	/	-2%	-3%	-1%	/	/	0%	?
O=C(CCN1C(=O)c2ccccc2S1(=O)=O)NCc1ccccc1	/	-2%	3%	13%	/	/	25%	19%[46.1 µM]
CCCCn1c(N)c(N(CC(C)C)C(=O)C2=NN(c3cc(C)ccc3C)C(=O)CC2)c(=O)[nH]c1=O	/	8%	-1%	-19%	/	/	-20%	-21%
CCOc1nc2cnccc2n(CC(=O)Nc2ccc(C)c(C)c2)c1=O	/	4%	3%	-13%	/	2%	/	/
CCCCCCCCCCCCCCCCCC(=O)OC(CC(=O)O)C[N+](C)(C)C (stereo not given)	?	/	/	/	-3.3%	-18%	-8%	?
O=c1nc(N/N=C/c2c[nH]c3ccccc23)cn[nH]1	/	0%	0%	8%	/	-8%	?	8.9µM*
Cc1ccc(NC(=O)c2noc(C(C)C)c2[N+](=O)[O-])cc1	/	-4%	0%	34%[activator]	/	/	20%	7%[46.1 µM]
Cc1ccccc1C(=O)c1cn[nH]c1-c1ccccc1O	/	9%	0%	12%	/	4%	/	/
COc1ccc(CCNC(=O)c2cc3sc(Cl)cc3n2C)cc1OC	?	-2%	-17%	-21%	-11%	-48%	/	/
COc1ccc(NC(=O)COc2ccccc2C)cc1S(=O)(=O)N1CCCCC1	/	36%	-2%	?	/	/	?	?
N#CCSc1nnc(-c2c[nH]c3ccccc23)o1	/	9%	-2%	18%	/	16%	21%[46.1 µM]	13%[46.1 µM]
CN(CC(=O)Nc1ccccc1Cl)C(=O)COC(=O)C1CC1	/	12%	-3%	-3%	/	/	-2%	-7%
Cn1c(C(=O)N2CCCC(C(=O)N3CCN(c4ccccc4)CC3)C2)cc2sccc21 (stereo not given)	?	/	/	?	-1.5%	/	/	?
COC(=O)Cn1nnc(-c2cccc(OC)c2)n1	-2%	-10%	1%	/	2.6%	-4%	-5%	16%
O=C(Cn1c(=O)oc2ccccc21)Nc1ccccc1Cl	/	0%	3%	1%	/	-9%	0%	0%
Cc1nc2c(c3c1[nH]c1ccccc13)C(O)CC(C)(C)C2 (stereo not given)	-21%	?	-16%	?	-14%	12%	?	?
CCOC(=O)C1CCCN(Cc2cn3c(-c4cccc(Br)c4)nnc3s2)C1 (stereo not given)	-5%	/	/	-22%	-1.6%	/	-6%[46.1 µM]	?
CCOC(=O)c1cc2c(=O)n3ccccc3nc2n(CC(C)C)c1=NC(=O)c1cc2ccccc2o1	-4%	/	/	16%	4.9%	/	25%[46.1 µM]	15%[46.1 µM]

The list goes on.
mol	Cruzain inh noDet	RE007 growth inh	SARS PLP yeast	2A StopGo	Cruzain inh Det	NS1 inh	LASV entry inh	Marburg entry inh
COc1cccc(OC)c1OCCCCn1cnc2ccccc2c1=O	/	7%	0%	3%	/	-4%	-24%	0%
O=c1cc(N2CCCCC2)c2ccccc2o1	/	-13%	0%	12%	/	0%	9%[46.1 µM]	?
C/C(=N\Nc1cccc(C(=O)O)c1)c1ccc(Cl)s1	/	?	-16%	15%	/	/	-14%[46.1 µM]	?
COc1ccc(-c2nc(-c3cccc(C)c3)no2)cc1OC	?	-8%	12%	8%	-10%	-9%	17%	?
COC(=O)c1cc(S(=O)(=O)NCc2ccc3c(c2)OCO3)c[nH]1	/	-4%	8%	0%	/	-8%	/	/
COc1ccc(C2=C(Nc3ccc(Br)c(C)c3)c3ccccc3C2=O)cc1	-29%	/	/	28µM*	-4.9%	/	-5%[46.1 µM]	-16%[46.1 µM]
CC(=O)Nc1ccc(C(=O)Nc2cccc(S(=O)(=O)NC3=NCCC3)c2)cc1	/	1%	-2%	7%	/	/	-6%	54%
Cc1ccc(S(=O)(=O)N2CCC(C(=O)Nc3ccc(N4CCOCC4)cc3)CC2)cc1C	/	-21%	3%	-13%	/	/	3%	18%

Compounds from the list above that contain a cyano group (two):
mol	Cruzain inh noDet	RE007 growth inh	SARS PLP yeast	2A StopGo	Cruzain inh Det	NS1 inh	LASV entry inh	Marburg entry inh
C=CCn1c(O)c(CN2CCOCC2)c(C)c(C#N)c1=O	2%	3%	3%	-23%	-1.2%	-6%	-2%	17%
N#CCSc1nnc(-c2c[nH]c3ccccc23)o1	/	9%	-2%	18%	/	16%	21%[46.1 µM]	13%[46.1 µM]

Reformatted: results already given.
Below each SMILES: Cruzain inh noDet | RE007 growth inh | SARS PLP yeast | 2A StopGo | Cruzain inh Det | NS1 inh | LASV entry inh | Marburg entry inh
- O=C(CSCc1ccc(C(=O)O)cc1)Nc1ccc2ccccc2c1
 : / | -12% | 0% | -2% | / | 2% | / | /
- Cn1cc(S(=O)(=O)N2CCCC2)cc1C(=O)NCc1ccccc1
 : / | -3% | -9% | -27% | / | 23% | / | /
- Cc1ccc(-c2nn(C)c(=O)c3ccccc23)cc1CN1CCCCC1
 : / | 1% | 0% | 12% | / | -7% | 17%[46.1 µM] | -2%[46.1 µM]
